Assay outcomes from PubChem.
Mtb hypoxia inh = Mtb hypoxia fluorescent reporter inhibition; M. tuberculosis hypoxia-regulated fluorescent reporter, fluorescence; 300,000 tested, 0.1% active; fluorescence inhibition, % (no concentration beside the values);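 active = 35 to 45% if threefold the growth effect, above 45% if 1.5-fold the growth effect; inactive = the rest, general growth blockers included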;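 note: wells of about 50 µL received 100 nL stock; 0% = vehicle wells and 100% = reference inhibitor wells; whole bacteria with a GFP reporter of the hypoxia response; strong numbers were not always called active; many hits fall short of the cut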
Sa RN4220 lethal = kills Staphylococcus aureus RN4220 | S. aureus RN4220 growth, OD600, 16 h | AID 1259311 | 330,000 tested, 0.33% active | inhibition, % (concentration not given with the values);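 active = z-score of -3 or lower and OD600 up to 0.18 on both plates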;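 note: plate controls were untreated cells for no effect and reference antibiotic for full effect; stock transfer was 100 nL into about 80 µL; one replicate is shown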
PrP UTR inh = suppresses PrP 5' UTR mRNA reporter expression; cell-based PrP 5' UTR mRNA reporter, plate reader; inhibition, % (no concentration beside the values); 340,000 tested, 0.35% active;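 active = every replicate at 50% or more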;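 note: 0 = median of the neutral control wells; tested in H4 reporter cells; numbers are from one replicate; inactives centre near -14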
BJeLR lethal = BJeLR cell viability loss; BJeLR (HRASV12) viability, CellTiter-Glo ATP luminescence, 48 h; reference of the scale not given here; inhibition, % (concentration not given with the values); 300,000 tested, 0.17% active;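 active = replicate mean above 50%; inconclusive = above 50% but judged a plate artefact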;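 note: 50 nL library stock added to about 25 µL; numbers are from one replicate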
ugtP null kill = compounds lethal to S. aureus RN4220 ugtP deletion mutant | OD600 growth, 16 h; some inactives read as strong as hits | growth inhibition, % (test concentration not listed) | 330,000 tested, 0.54% active;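 active = z-score under -3 and OD600 up to 0.15 on both plates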;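 note: plate controls were untreated wells for no effect and antibiotic for full effect; wells of about 80 µL received 100 nL stock; the first replicate is given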
Bead autofluor = counter-screen for toxin protease inhibitors: compound fluorescence. compound autofluorescence counterscreen, microsphere flow cytometry; stronger effect = higher value. fluorescence intensity (no concentration beside the values). 360,000 tested, 3.1% active;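 active = at least 3 SD above the mean of all compounds, about 16000 in these data; inconclusive = too few beads counted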;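 note: 100 nL of 1 mM stock went into each well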
Mtb hypoxia inh growth = further read-out of Mtb hypoxia inh, marked with its call; growth inhibition, %; measured here: M. tuberculosis growth (absorbance);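 0% = vehicle and 100% = reference antibiotic; read after six days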
Numbers without * were called inactive; ? = inconclusive; / = not tested or not shown.

A first look:
SMILES	Mtb hypoxia inh	Mtb hypoxia inh growth	Sa RN4220 lethal	PrP UTR inh	BJeLR lethal	ugtP null kill	Bead autofluor
Cc1cccc(NC(=O)c2ccccc2-c2ccccc2)c1	5	-2	10	-18	8	18	3287
COc1ccc(C(=O)CCC(=O)Nc2ccc(N3CCN(C)CC3)cc2)cc1OC	2	3	2.9	-7	/	-1	8300
O=C(NCCCN1CCOCC1)C1CCN(S(=O)(=O)c2cccc(C(F)(F)F)c2)CC1	-2	10	2.1	-11	/	2	3688
COc1cccc(NC(=O)CN(C)C(=O)c2c(-c3c(F)cccc3Cl)noc2C)c1	10	0	6.6	-22	/	6	6469
Cc1oc(-c2ccccc2Cl)nc1CS(=O)(=O)CC(=O)NC1CCCC1	4	0	10	-5	-9	9	5031
Cc1nn(Cc2cccc(C(=O)NC3CCCCC3)c2)c(C)c1Cl	-1	-3	27	-9	-10	12	2432
COc1ccccc1/C=N/OCc1cc(C(C)=O)ccc1OC	/	/	/	-22	-9	/	3665
CC1CCN(S(=O)(=O)c2ccc3c(c2)c(=O)c(C(=O)NCc2cccs2)cn3C)CC1	0	2	2.6	-40	1	-2	11099
O=C(CCc1ccc(O)c(O)c1)N/N=C/c1ccc2c(c1)OCO2	/	/	/	-3	-3	/	5690
CC(Oc1ccc(Cl)cc1Cl)C(=O)N(C)c1ccccc1 (configuration not stated)	4	3	3.8	-14	6	-13	2306
Fc1ccc(-n2cc(CNCCc3ccncc3)c(-c3ccccc3Cl)n2)cc1	11	2	-0.5	-11	-14	7	2612
CCN(CC)c1ccc(/C=N/n2c(C)nc3ccccc3c2=O)cc1	/	/	/	-19	5	/	3497
C#CCn1c(=NC(=O)c2ccc(Br)s2)sc2cc(NC(C)=O)ccc21	/	/	/	-18	2	/	1954
COc1ccc(CNC(=O)C2CCCN(S(=O)(=O)c3ccc(-n4cnnn4)cc3)C2)cc1 (configuration not stated)	7	2	5.8	-8	1	-3	3647
CCCC(=O)Nc1ncnc2c1ncn2C1OC2OP(=O)(O)OCC2C1OC(=O)CCC (configuration not stated)	-3	-2	4.5	/	/	-4	/
COc1cccc(/C=N/NC(=O)c2[nH]c(C)c(C(=O)N/N=C/c3cccc(OC)c3O)c2C)c1O	/	/	/	-4	1	/	2512
COC(=O)[C@]1(CC(C)C)N[C@H](c2ccc(-c3ccc(F)cc3)c(OC)c2)[C@@H]2C(=O)N(C)C(=O)[C@@H]21	/	/	/	-11	-13	/	4478
Cc1cc(C)n2nc(CC(=O)NC3CCCCCCC3)nc2n1	2	5	2.7	-1	-2	0	7687

Results, from the first entry:
SMILES	Mtb hypoxia inh	Mtb hypoxia inh growth	Sa RN4220 lethal	PrP UTR inh	BJeLR lethal	ugtP null kill	Bead autofluor
Cc1cccc(NC(=O)c2ccccc2-c2ccccc2)c1	5	-2	10	-18	8	18	3287
COc1ccc(C(=O)CCC(=O)Nc2ccc(N3CCN(C)CC3)cc2)cc1OC	2	3	2.9	-7	/	-1	8300
O=C(NCCCN1CCOCC1)C1CCN(S(=O)(=O)c2cccc(C(F)(F)F)c2)CC1	-2	10	2.1	-11	/	2	3688
COc1cccc(NC(=O)CN(C)C(=O)c2c(-c3c(F)cccc3Cl)noc2C)c1	10	0	6.6	-22	/	6	6469
Cc1oc(-c2ccccc2Cl)nc1CS(=O)(=O)CC(=O)NC1CCCC1	4	0	10	-5	-9	9	5031
Cc1nn(Cc2cccc(C(=O)NC3CCCCC3)c2)c(C)c1Cl	-1	-3	27	-9	-10	12	2432
COc1ccccc1/C=N/OCc1cc(C(C)=O)ccc1OC	/	/	/	-22	-9	/	3665
CC1CCN(S(=O)(=O)c2ccc3c(c2)c(=O)c(C(=O)NCc2cccs2)cn3C)CC1	0	2	2.6	-40	1	-2	11099
O=C(CCc1ccc(O)c(O)c1)N/N=C/c1ccc2c(c1)OCO2	/	/	/	-3	-3	/	5690
CC(Oc1ccc(Cl)cc1Cl)C(=O)N(C)c1ccccc1 (configuration not stated)	4	3	3.8	-14	6	-13	2306
Fc1ccc(-n2cc(CNCCc3ccncc3)c(-c3ccccc3Cl)n2)cc1	11	2	-0.5	-11	-14	7	2612
CCN(CC)c1ccc(/C=N/n2c(C)nc3ccccc3c2=O)cc1	/	/	/	-19	5	/	3497
C#CCn1c(=NC(=O)c2ccc(Br)s2)sc2cc(NC(C)=O)ccc21	/	/	/	-18	2	/	1954
COc1ccc(CNC(=O)C2CCCN(S(=O)(=O)c3ccc(-n4cnnn4)cc3)C2)cc1 (configuration not stated)	7	2	5.8	-8	1	-3	3647
CCCC(=O)Nc1ncnc2c1ncn2C1OC2OP(=O)(O)OCC2C1OC(=O)CCC (configuration not stated)	-3	-2	4.5	/	/	-4	/
COc1cccc(/C=N/NC(=O)c2[nH]c(C)c(C(=O)N/N=C/c3cccc(OC)c3O)c2C)c1O	/	/	/	-4	1	/	2512
COC(=O)[C@]1(CC(C)C)N[C@H](c2ccc(-c3ccc(F)cc3)c(OC)c2)[C@@H]2C(=O)N(C)C(=O)[C@@H]21	/	/	/	-11	-13	/	4478
Cc1cc(C)n2nc(CC(=O)NC3CCCCCCC3)nc2n1	2	5	2.7	-1	-2	0	7687
CN1C(=O)[C@H]2[C@@H](/C=C/c3ccccc3)N3C(=O)CN(Cc4ccccn4)C(=O)[C@@]3(C)[C@H]2C1=O	/	/	/	-1	-13	/	2847
COc1cccc(C(=O)Nc2cc(C(=O)NCc3ccc(C)cc3)ccc2N2CCC3(CC2)CC(c2ccccc2)=NO3)c1	10	18	13	-3	-11	-6	3594
Cc1nc(N)c(C#N)c(-c2ccc3c(c2)OCO3)c1C	10	4	1.6	-23	0	0	/
COc1cccc(OC)c1C(=O)Nc1cc(Cl)ccc1N1CCOCC1	5	10	-2.6	-16	1	0	3287
Cc1c(CNC(=O)c2nn3c(c2Cl)NC(c2ccccc2)CC3C(F)(F)F)cnn1C (configuration not stated)	-1	9	5.5	-6	6	-10	8825
Cc1ccc(C)c(Cn2c(C(=O)OC(C)C)cc3c2ccn3C)c1	18	7	-3.1	-26	-2	62	4000

In a second layout: entries from further up
Cc1nc(N)c(C#N)c(-c2ccc3c(c2)OCO3)c1C
  Mtb hypoxia inh: 10	Mtb hypoxia inh growth: 4	Sa RN4220 lethal: 1.6	PrP UTR inh: -23	BJeLR lethal: 0	ugtP null kill: 0	Bead autofluor: /

COc1cccc(OC)c1C(=O)Nc1cc(Cl)ccc1N1CCOCC1
  Mtb hypoxia inh: 5	Mtb hypoxia inh growth: 10	Sa RN4220 lethal: -2.6	PrP UTR inh: -16	BJeLR lethal: 1	ugtP null kill: 0	Bead autofluor: 3287

C#CCn1c(=NC(=O)c2ccc(Br)s2)sc2cc(NC(C)=O)ccc21
  Mtb hypoxia inh: /	Mtb hypoxia inh growth: /	Sa RN4220 lethal: /	PrP UTR inh: -18	BJeLR lethal: 2	ugtP null kill: /	Bead autofluor: 1954

Carrying on.
SMILES	Mtb hypoxia inh	Mtb hypoxia inh growth	Sa RN4220 lethal	PrP UTR inh	BJeLR lethal	ugtP null kill	Bead autofluor
O=C1S/C(=C\c2ccc(N3CCOCC3)o2)C(=O)N1Cc1ccc(F)cc1	-1	0	0.3	-26	/	-7	4819
COC(=O)c1ccccc1C(=O)N1CCC(CCC(=O)NC2CC2)CC1	8	6	6.8	-10	-8	19	10173
COc1ccc(Cl)cc1S(=O)(=O)Nc1noc2ccccc12	9	4	12	-5	1	4	2694
O=C(O)COc1c(-c2ccc(Cl)cc2)oc2ccccc2c1=O	2	3	4.1	-9	0	-2	2682
c1ccc(CN2CCOCCOCCOCC2)cc1	6	-2	3.9	-19	-3	5	3594
Cc1cc(Nc2ccccc2)n(-c2ccccc2)n1	/	/	-0.7	-12	4	-8	4740
COc1ccccc1CN1CC(C(=O)NCCn2nc(C)cc2C)CCC1=O (configuration not stated)	16	-2	3.3	-15	-3	8	?
CCCOC(=O)c1ccc(NC(=O)c2cc(Cl)ccc2OC)cc1	-4	16	2.5	-20	0	-15	2217
CCN(CC)C(=O)Cn1c(=O)n(Cc2ccccc2Cl)c2c1c(=O)n(C)c(=O)n2C	3	-2	3.3	/	1	-2	9629
N#CC(=C(O)CN1CCN(c2ccccc2F)CC1)c1nc(-c2ccccc2)cs1	9	0	8.0	5	/	13	3020
CCOC(=O)Cc1nc2ccccc2o1	12	2	1.6	/	19	1	/
COc1ccccc1C(=O)N1CCCN(C(=O)c2ccccc2OC)CC1	-4	0	-0.5	-9	-11	0	3921
COc1ccc(-c2ccc(OC)c([C@H]3[C@H]4C=CC[C@@H](C)[C@@H]4C(=O)N3Cc3ccccc3)c2)cc1	/	/	/	-6	7	/	3004
NC(=O)c1ccccc1NC(=O)CCCN1C(=O)CCC1=O	/	/	0.7	8	6	0	2941
CC(=O)N1c2ccc(S(=O)(=O)N3CCCCC3)cc2CC1C(=O)NCc1cccc(Cl)c1 (configuration not stated)	9	3	6.4	-3	-8	13	4651
COc1ccc(NC(=O)CN(C)S(=O)(=O)c2ccc3[nH]c(=O)oc3c2)cc1	2	-5	3.2	-9	56*	4	5396
COc1ccc(/C=N/N=C/c2ccc(OC)c(O)c2)cc1O	/	/	/	-2	-1	/	6697
CCOc1ccc(NC(=O)CSc2nnc(-c3ccccc3)n2N)cc1	/	/	4.9	-23	-4	15	2768
Cc1ccc(C)c(NC(=S)/C(=C(\[O-])c2ccc(OC(F)F)cc2)[n+]2ccccc2)c1	3	14	5.4	-15	13	13	4265
Cc1ccc(C)c(OCc2nc(-c3cccnc3)no2)c1	8	10	9.5	-16	18	-5	11528
COc1ccc(-c2nc(NC(=O)Cn3c(=O)oc4ccccc43)sc2C)cc1	-8	-8	-14	-27	20	-18	2276
O=C(CNS(=O)(=O)c1ccccc1)NNC(=O)C(Cl)Cl	5	4	6.2	-18	2	1	4493
O=C(COC(=O)C1CCC1)c1c[nH]c2ccccc12	9	3	2.5	-9	-3	7	6422
O=C(NCCc1ccc(F)cc1)C1CCN(C(=O)Nc2ccccc2)CC1	4	5	2.3	-9	/	1	4032
CCN(CC)c1ncnc2c1cnn2Cc1ccc(Cl)cc1	11	11	12	-5	-2	1	4041
O=C(O)C1(c2ccccc2)CCC(Nc2ccccc2)C1 (configuration not stated)	-3	-3	1.6	-20	4	5	3144
Nc1cccc(S(=O)(=O)Nc2ccccc2)c1	/	/	/	-32	1	/	4555
CCNC(=O)N1CCNC(=O)C1CC(=O)OC (configuration not stated)	5	7	5.7	-11	-5	0	3783
O=[N+]([O-])c1cccc(C=NN=Cc2ccccc2)c1	8	7	5.8	/	/	5	/
NC(=O)c1ccc(NC(=O)C2CC(=O)N(c3ccc4c(c3)OCCO4)C2)cc1 (configuration not stated)	7	-2	5.5	-15	/	0	3754
COc1ccc(NC(=O)N2CCOCC2)cc1OC	/	/	0.9	7	1	1	4940
CCn1c2ccccc2c2cnc(N=CN(C)C)c(C#N)c21	/	/	0.1	34	-3	-6	2846
CCOc1cc(C(=O)NC(C)CCc2ccccc2)cc(OCC)c1OCC (configuration not stated)	-4	7	-3.6	11	1	-1	4031
C=Cc1ccc2c(c1)OCCOCCOCCOCCOCCO2	3	11	-2.9	-12	-8	7	5551
O=C(NCCS(=O)(=O)N1CCN(c2ccccc2)CC1)C1CC(=O)N(c2ccc(F)cc2)C1 (configuration not stated)	9	1	2.3	3	-16	-3	5053
CCCCn1c(CN2CCN(c3cccc(Cl)c3)CC2)nc2c1c(=O)n(C)c(=O)n2C	0	1	6.8	-3	10	-7	19625*
CN(C)C1=NCC(Cc2ccccc2)N1CCCC1CCCC1 (configuration not stated)	11	16	4.5	/	/	-6	/
O=C(CNC(=O)c1ccccc1Cl)OC1CCOC1=O (configuration not stated)	-9	-5	-1.7	-29	4	-11	4231
O=c1cc(N2CCOCC2)[nH]c(=O)n1-c1ccc(Cl)cc1	-5	1	3.4	-1	-1	5	4359
O=C(Nc1ccc(F)cc1)c1ccc2snnc2c1	-3	-5	4.9	-34	-1	6	3071
CC(=O)Nc1ccc(NC(=O)CS(=O)(=O)c2cn(CC(=O)N3CCCCC3)c3ccccc23)cc1	3	2	-0.2	-15	-1	-3	6687
COc1ccc(C(C)(C)C)cc1NC(=O)c1[nH]c(C)c(C(C)=O)c1C	6	5	6.5	-13	-12	11	5545
COc1ccc(-c2noc3c2-c2nc(C(C)C)sc2CC3)cc1	2	3	-0.8	-10	7	-3	3867
NC(=S)Nc1cccc2[nH]ncc12	4	12	3.5	-6	4	10	4483
CCOc1ccc(N(CC(=O)NC(C)(C)C)C(=O)CCC(=O)Nc2nccs2)cc1	-11	-4	1.7	-21	-5	3	4053
Cc1nnc(NC(=O)c2cccc(S(=O)(=O)N3CCCC3)c2)s1	3	3	-0.8	-16	-6	3	5219
